# Assay outcomes as filed in PubChem BioAssay.
# B2AR ag: agonists of human beta-2 adrenergic receptor inducing internalization. Am2.2-beta2AR cells, FAP receptor internalization, flow cytometry; reference of the scale not given here. response, % (no concentration beside the values). hit rate 0.43% among 340,000. AID 504454;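 active means response above a set limit, near 3 SD of response in nonfluorescent compounds, cut at about 42% in these data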;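 further: stock transfer was 100 nL into about 11 µL; a reference agonist was the positive control; negative values mostly stem from fluorescent compounds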
# Target sequence (P07550 whole entry, looked up): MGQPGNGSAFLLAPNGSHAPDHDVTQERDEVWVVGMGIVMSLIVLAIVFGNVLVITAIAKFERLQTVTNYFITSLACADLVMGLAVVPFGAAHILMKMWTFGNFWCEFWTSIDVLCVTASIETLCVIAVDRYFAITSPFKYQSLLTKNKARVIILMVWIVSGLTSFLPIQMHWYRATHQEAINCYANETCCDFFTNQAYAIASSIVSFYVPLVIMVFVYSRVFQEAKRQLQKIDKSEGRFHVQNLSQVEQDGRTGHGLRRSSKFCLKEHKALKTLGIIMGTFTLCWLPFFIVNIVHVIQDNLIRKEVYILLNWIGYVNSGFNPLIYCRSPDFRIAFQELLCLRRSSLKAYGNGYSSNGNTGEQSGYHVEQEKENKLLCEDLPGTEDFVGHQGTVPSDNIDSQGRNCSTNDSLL
# Beta cell apopt: blocks beta cell apoptosis; INS-1E cytokine-induced death, ATP luminescence, 48 h; percent of positive-control rescue, neutral wells zero; protection from apoptosis, % (concentration not given with the values); hit rate 0.8% among 300,000; AID 435005;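 active means all replicates at 75% or more, or half of them and the mean; inconclusive means half reach 75% but not the mean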;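 further: 0% = cytokine-treated negative control wells and 100% = positive control rescue; higher means more ATP so stronger rescue from cytokine killing; wells of about 40 µL received 100 nL stock; the first replicate is given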
# RanGTP-Imp inh: inhibitors of RanGTP-importin-beta interaction, primary screen, biochemical, FRET, CFP-Ran, YFP-importin-beta, homogeneous. inhibition, % (no concentration beside the values). hit rate 1.1% among 300,000. cell-free CFP-Ran/YFP-importin-beta FRET ratio;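 active means most replicates above 15%; inconclusive means exactly half above 15%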;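 further: 0% = DMSO wells and 100% = Ran loaded with GDP instead of GTP; wells of about 40 µL received 100 nL stock; the first replicate is given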
# A1 inh: inhibitors of the anti-apoptotic protein A1, read as caspase activation | hit rate 0.066% among 330,000 | caspase activation, % (concentration not given with the values) | AID 2462 | MEF A1-2A-BIM cells, Caspase-Glo 3/7 luminescence, 3 h; percent of clofoctol response, vehicle zero;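 active means over half of replicate activation scores above 10%, or exactly half above 10 with the replicate mean above 10; inconclusive means replicate mean below 10 yet half the replicates above 10; inactive means over half of replicates below 10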;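 further: wells of about 30 µL received 50 nL stock; many hits fall short of the cut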
# Calb FLC: affects C. albicans growth with fluconazole; C. albicans CaCi-2 (fluconazole-resistant clinical isolate) + fluconazole, Alamar Blue growth, 48 h; growth inhibition, % (test concentration not listed); hit rate 0.57% among 300,000; AID 1979;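 active means most replicates above 75%; inconclusive means exactly half above 75%; inactive means most below 75%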;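 further: all wells also contain fluconazole at 8 µg/ml as a sub-toxic cotreatment; 0% = median of DMSO wells and 100% = median of geldanamycin control wells; wells of about 8 µL received 7.5 nL stock; the first replicate is given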
# UCH37 DUB inh: blocks the human deubiquitinase UCH37 | Q9Y5K5 | purified proteasome/UCH37, Ub-AMC cleavage fluorescence | inhibition, % (concentration not given with the values) | hit rate 0.33% among 330,000 | AID 588478;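 active means mean of two replicates above 20%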;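 further: 0% = compound-free wells with enzyme and 100% = wells lacking proteasome; stock transfer was 100 nL into about 20 µL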
# Target sequence (Q9Y5K5 whole entry, looked up): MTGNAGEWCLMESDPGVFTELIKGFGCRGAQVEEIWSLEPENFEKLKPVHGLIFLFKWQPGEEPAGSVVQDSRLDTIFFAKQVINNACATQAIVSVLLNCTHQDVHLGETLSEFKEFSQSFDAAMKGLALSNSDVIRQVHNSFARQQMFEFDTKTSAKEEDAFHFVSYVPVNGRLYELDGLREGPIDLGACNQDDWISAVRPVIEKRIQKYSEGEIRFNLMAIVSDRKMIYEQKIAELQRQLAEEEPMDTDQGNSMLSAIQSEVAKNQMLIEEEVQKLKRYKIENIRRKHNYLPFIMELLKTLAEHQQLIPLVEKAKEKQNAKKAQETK
#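 Material: Human UCH37 enzyme supplied as purified proteasome complex | Schedule: 30 min preincubation with enzyme, 25 min cleavage at room temperature | Detection: AMC fluorescence 355/460 nm | Measure: % inhibition of Ub-AMC cleavage fluorescence | Controls: Wells without proteasome as full block, compound-free enzyme plus substrate as uninhibited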
# LANA-H2A inh: blocks KSHV LANA binding to histone H2A/H2B. Q9QR71. cell-free LANA-H2A/H2B peptide, fluorescence polarization. inhibition, % (test concentration not listed). hit rate 0.6% among 320,000. AID 2629; in the data active means inhibition mostly above about 10%, no sharp cut-off; inactive means mostly below about 6.7%;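 further: stock transfer was 7.5 nL into about 10 µL; 0% = median of vehicle wells and 100% = median of positive control wells; one replicate is shown; the record names a cut of 25% in any replicate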
# T cruzi repl: blocks replication of Trypanosoma cruzi; T. cruzi beta-gal in NIH3T3, luminescence, 90 h; inhibition, % (test concentration not listed); hit rate 1.4% among 300,000;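 active means mean inhibition across valid replicates above about 55%, limit read from the data; inconclusive means mean below that limit but half or more replicates reach it; inactive means mean below it, under half of replicates reach it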;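 further: signal also drops with host cell toxicity which is not excluded here; 0% = plate median of DMSO wells and 100% = zero luminescence signal; higher percent means less beta-gal luminescence so fewer parasites; stock transfer was 50 nL into about 50 µL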
# The depositor's hits bear a star; i = inactive; u = inconclusive; x = not tested or not shown.
structure	B2AR ag	Beta cell apopt	RanGTP-Imp inh	A1 inh	Calb FLC	UCH37 DUB inh	LANA-H2A inh	T cruzi repl
COc1ccc(CNC(=O)C2CCCN2C)cc1OC (stereo not given)	0	1	5.1	0.0	24	0.3	3.8	4
CCOC(=O)c1nc2cc3n(c(C)c-2c1C)C(C)C(CC)=C3C (stereo not given)	-7	-1	-13	0.2	3	-186	1.2	50
Cc1c(CC(=O)O)c(=O)oc2cc(OCc3ccc(Cl)cc3)ccc12	10	-5	8.5	-0.7	11	-374	44*	-3
COc1ccc(CNC(=O)COc2ccc(S(=O)(=O)N3CCCCC3)cc2Cl)cc1	12	-4	-0.6	-0.3	2	4.2	6.0	9
COc1cc(C2N(c3ccccn3)C(=O)C3CCCN32)cc(OC)c1OC (stereo not given)	2	-10	-0.7	0.2	46	1.6	-5.2	-9
O=C1N[C@@H](Cc2ccccc2)C(=O)N2[C@@H]3N(S(=O)(=O)c4ccccc4)c4ccccc4[C@]3(Br)C[C@@H]12	-1	x	u	2.1	-2	2.8	-4.9	11
Cc1ccc(S(=O)(=O)N2CCOCC2)cc1NC(=O)COC(=O)c1ccccc1OCc1c(C)noc1C	4	1	1.5	-0.1	-2	x	0.2	3
CCOC(=O)/C(C#N)=C/c1cc2ccc(C)cc2nc1Cl	6	0	-2.7	-0.6	32	0.7	-0.8	-1
CCc1ccccc1NC(=O)c1ccc(-c2csc(C)n2)cc1	3	1	-2.4	-5.8	-3	-5.9	2.2	3
CN1N=C(C(C)(C)C)CC1=O	2	1	3.6	1.2	-7	x	3.5	-14
C[C@@H](NC(=O)c1nc[nH]c1C(=O)N[C@@H](Cc1ccccc1)C(=O)OC(C)(C)C)c1ccccc1	1	-1	2.0	-0.9	-1	5.4	2.4	15
O=S(=O)(c1ccccc1)N(CC(O)COc1ccccc1)c1ccccc1 (stereo not given)	-7	-10	3.0	0.6	-5	-0.4	0.4	-15
C=CCN(C(=O)c1csnn1)C(C(=O)NC1CCCCC1)c1ccccc1F (stereo not given)	-4	-2	2.5	-0.1	-1	x	-2.3	12
O=C(CCc1ccc(CCC(=O)c2cccs2)s1)c1cccs1	-4	-2	-0.9	0.4	x	-0.3	5.2	4
O=C(Nc1ccccc1)c1ccc(CN2CCc3ccccc3C2)cc1	-5	-1	2.3	-0.7	15	-0.5	-7.6	10

# (listing goes on)
structure	B2AR ag	Beta cell apopt	RanGTP-Imp inh	A1 inh	Calb FLC	UCH37 DUB inh	LANA-H2A inh	T cruzi repl
COc1ccccc1N(CC(=O)N1CCCCCC1)S(C)(=O)=O	-6	2	-3.0	0.0	-15	-0.3	1.4	-12
Cc1cc(C(=O)N/N=C/c2ccccc2[N+](=O)[O-])c(C)o1	-3	4	-2.9	0.1	-9	x	10.0	0
CSc1nc2c(c(=O)n1-c1ccccc1)SCC2	-3	5	1.1	1.1	u	5.2	-1.2	-9
COc1ccc(Nc2nnc(SC(C)C(=O)NC3CC3)s2)cc1 (stereo not given)	-6	0	x	0.2	x	3.3	0.8	x
COc1ccc(-c2nnnn2-c2ccc(F)cc2F)cc1	-5	-2	u	0.6	35	1.7	3.7	4
N#CSC(c1ccccc1)c1nc2ccccc2[nH]c1=O (stereo not given)	-14	7	-16	-1.1	0	-8.9	0.2	-11
CC1CCCC(C)N1C(=C(Cl)Cl)C(=C1SCCS1)[N+](=O)[O-] (stereo not given)	13	10	1.8	1.3	7	3.8	-0.7	27
CCN1CCCC1CNS(=O)(=O)c1cccc(C(F)(F)F)c1 (stereo not given)	4	4	-1.0	0.0	2	1.4	4.9	14
COc1cc(=O)n(C)c2cc(N(C)C)ccc12	3	-11	0.6	-0.3	-5	i	-8.3	-2
CC1Oc2ccccc2C=C1/C=N/NC(=O)c1ccncc1 (stereo not given)	1	-2	4.0	-0.1	-2	x	6.7	-4
Cc1cc(O)c(CN(C)C)c2c1C(=O)/C(=C/c1ccco1)O2	-3	1	-46	0.6	-6	-9.4	3.3	-3
Cc1cc(O)c(NC(=O)c2ccco2)cc1C	-4	1	-0.9	0.5	5	3.8	-6.2	-13
O=C(/C=C/c1ccc(F)cc1)NC(=S)N1CCOCC1	14	-5	-3.0	-4.8	-5	4.1	3.2	-11
COc1cc2c(cc1OC)C1Cc3ccc(OC)c(OC)c3C[N+]1([O-])CC2 (stereo not given)	-8	0	-0.1	-1.3	-5	-1.2	1.6	-3
Cc1ccc2c(COC(=O)c3ccccc3OC(F)F)cc(=O)oc2c1	-7	-2	1.3	0.7	-3	6.0	4.2	2

# Remaining list, next part
structure	B2AR ag	Beta cell apopt	RanGTP-Imp inh	A1 inh	Calb FLC	UCH37 DUB inh	LANA-H2A inh	T cruzi repl
O=C(O)COc1ccc2c(c1)CCCC2	1	x	0.4	0.3	u	-4.1	-1.2	-6
COc1cc(CC(NC(C)=O)C(=O)NC2CCN(c3c4c(nc5ncnn35)CCC4)CC2)cc(OC)c1 (stereo not given)	x	-2	-0.3	0.3	-2	4.0	-1.7	-6
CCN1CCN(C(=O)c2ccc(N3CC4CC(C3)c3cccc(=O)n3C4)c([N+](=O)[O-])c2)CC1 (stereo not given)	-4	0	4.7	0.5	15	1.7	-2.0	6
Cc1ccc(NC(=O)N(Cc2ccco2)C(C)c2ccco2)cc1C (stereo not given)	3	2	-2.9	-0.6	2	1.1	-1.6	8
CCOC(=O)c1c(C)[nH]c(=S)c(C#N)c1-c1ccc(Cl)cc1	2	7	-58	0.0	17	1.3	1.0	-2
COc1cc(/C(C)=N/NC(=O)CSc2nnc(C)s2)ccc1O	-3	-5	2.0	-0.8	-2	x	-0.7	-5
O=C(Nc1nnc(-c2ccc(Br)cc2)o1)c1ccco1	9	x	-0.2	-3.1	71	4.8	3.1	-20
COc1ccc(C(=O)Nc2c(N)nc(SCC(=O)Nc3ccc(C(C)=O)cc3)[nH]c2=O)cc1	0	-6	0.2	-0.1	0	-2.0	2.9	-5
COc1cc2nc(CN(C)Cc3ccc(C(C)(C)C)cc3)[nH]c(=O)c2cc1OC	1	8	1.5	-0.1	-20	-1.5	-0.8	4
N#Cc1cc([N+](=O)[O-])c(-n2nnc3ccccc32)c([N+](=O)[O-])c1	55*	-1	2.8	-0.2	-3	5.5	-7.8	-1
O=C(Nc1nc2ccccc2n1CCN1CCCC1)C1CCCCC1	-7	9	0.3	-0.2	-3	1.7	i	-7
O=C(N/N=C/c1ccncc1)c1cc([N+](=O)[O-])cc([N+](=O)[O-])c1	-5	x	-2.0	0.0	-3	x	4.0	30
O=C(CNS(=O)(=O)c1ccccc1)Nc1cccc([N+](=O)[O-])c1	4	-2	6.4	0.4	2	0.8	-3.9	11
CCOC(=O)c1cnn(CCOC(=O)C2CC2)c1NC(=O)C1CC1	-8	-4	1.1	1.0	11	0.4	-1.9	-18
Cc1cccc(NC(=O)CCc2nnc3ccc(N4CCC(C)CC4)nn23)n1	-18	1	-0.7	-0.5	3	4.0	1.8	-1

# Additional entries
structure	B2AR ag	Beta cell apopt	RanGTP-Imp inh	A1 inh	Calb FLC	UCH37 DUB inh	LANA-H2A inh	T cruzi repl
CCC(O)(C(=O)Nc1ccccc1C(F)(F)F)c1ccccc1OC (stereo not given)	6	-1	x	-0.4	x	-0.3	2.7	x
O=C(O)CCNC(=O)c1cncc(Br)c1	-5	-3	4.0	-0.2	-30	-0.5	-1.2	1
O=C(NC1CCCC1)c1cc(-c2ccccc2)on1	-10	22	-1.8	-1.8	-27	1.3	2.7	-47
COc1ccc(-c2cc(CNS(=O)(=O)c3ccc(NC(C)=O)cc3)on2)cc1	-2	-2	-1.9	-1.5	-21	x	0.9	10
CCC1(C)Cc2sc3c(=O)[nH]c(=S)[nH]c3c2CO1 (stereo not given)	-3	12	1.6	-0.3	26	5.6	-1.5	2
Fc1ccc(-c2noc(-c3ccc4c(c3)CCO4)n2)cc1	1	0	-5.2	-5.2	-1	0.1	-1.3	-1
CS(=O)(=O)N(CC(=O)N1CCN(Cc2ccc3c(c2)OCO3)CC1)c1ccc2c(c1)OCO2	-7	-1	-6.8	-0.3	-7	0.1	-1.6	19
O=[N+]([O-])c1ccccc1OC/C(=N\O)c1ccccc1	-7	-6	3.8	-1.6	0	x	-3.5	4
C=CCSc1nc(N)cc(=O)[nH]1	-11	2	3.6	0.1	-1	3.2	-1.3	-15
O=C(Nc1cccc2c1CCCC2)c1cccc(F)c1	-3	-2	0.4	0.5	-9	1.8	-3.3	-12
C=C1CCC[C@]2(C)C[C@H]3OC(=O)C(CNCC(OC)OC)[C@H]3CC12 (stereo not given in full)	1	-3	4.2	0.8	-11	6.7	7.1	-7
O=C(COc1ccc(Cl)cc1)OCC(=O)N1CCCc2ccccc21	-1	1	2.1	-0.3	2	5.7	-3.9	-33
COc1cccc2cc(-c3ccnc(=S)[nH]3)oc12	x	0	-3.0	-0.2	3	x	-2.2	-4
C=CCOc1ccc(/C=C/C(=O)OCC(=O)NCCCc2ccccc2)cc1	2	4	-5.2	-1.1	-6	-0.6	x	-3
C=C(C)COc1ccc2c(C)c(CC(=O)N3C[C@H]4C[C@@H](C3)c3cccc(=O)n3C4)c(=O)oc2c1C	2	11	9.2	0.7	-2	-142	-0.2	9

# Next section.
structure	B2AR ag	Beta cell apopt	RanGTP-Imp inh	A1 inh	Calb FLC	UCH37 DUB inh	LANA-H2A inh	T cruzi repl
Cc1ccc(S(=O)(=O)Nc2ccc(N3CCN(C)CC3)nc2)cc1	-3	-7	-7.5	0.1	-6	2.5	1.9	58*
N#Cc1cc(Oc2cccnc2)c(Oc2cccnc2)cc1C#N	-7	-1	-2.2	-0.3	1	1.4	-1.7	-12
COc1ccc(-c2cccc(C(=O)Nc3cccc(C(=O)O)c3)c2)cc1	3	-4	-2.3	-4.4	6	1.4	7.2	18
Cc1ccc(C)c(OCC(=O)N/N=C\c2cccn2C)c1	0	x	2.1	0.2	-5	x	-5.3	7
Cc1cc(C)n(-c2nc(-c3ccccc3)cs2)n1	0	2	-0.3	1.5	2	2.0	-1.5	-2
Cc1ccc(N(Cc2cc3ccccc3[nH]c2=O)C(=O)c2cccs2)cc1	-7	10	-3.4	0.3	7	-0.6	3.1	9
CN(C)/C=C(\C#N)S(=O)(=O)c1ccc(Cl)cc1	-8	2	7.8	1.6	-6	1.1	0.3	2
COc1cc(/C=N/NC(=O)CCOc2ccccc2C)cc(Br)c1O	11	2	3.3	0.1	32	x	-0.8	-13
Cc1cc(Cl)cc2sc(NC(=O)C3CC3)nc12	4	3	1.8	0.1	5	0.0	3.9	1
CS(=O)(=O)N1CCC(C(=O)Nc2ccccc2)CC1	-5	-1	-0.3	1.7	-13	1.0	-2.0	-4
COC(=O)c1cc(=O)n2c(-c3ccc(OC)cc3)csc2n1	6	-1	-5.5	0.6	x	1.6	2.4	-5
Cc1ccc(C(C)(C)C)c(OCCCCN2CCCC2)c1	2	-3	-0.6	0.1	-9	4.5	x	28
CC(C)NC(=O)c1cccc(C(F)(F)F)c1	13	0	5.5	-0.5	-4	1.3	-3.2	-9
COc1ccc(S(=O)(=O)NCc2ccc3c(c2)OCO3)cc1OC	0	3	-3.6	0.3	1	-1.6	0.7	-3
CCOc1ncccc1C(=O)OCC(=O)NCCc1ccc(OC)cc1	4	-5	-0.7	-0.4	0	-0.6	0.1	3
